High-throughput results as filed in PubChem.
gsp antagonist: antagonizes gsp, the McCune-Albright syndrome mutation; gsp-mutant cells, cAMP HTRF, 30 min; control for the full effect not named in the record; Potency, µM (doses to about 76.9 µM), for inactives: at the highest dose activity change, negative = inhibition, most hits filed as inhibitors; 340,000 compounds, 0.4% hits; AID 624288; active = falling curve of any shape with a large fitted effect; inconclusive = falling curve, mostly with a smaller effect; inactive = flat or rising curve; cell line not stated here;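 further: intracellular cAMP measured with PDE inhibitor Ro 20-1724 present during compound exposure; potency means the concentration at half of the fitted maximal effect; on the % scale 0 is the no-effect control and ±100 the full control effect; nearly all actives have a fitted effect of over 65% in size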
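HTRF cAMP measurement after 30 min RT detection following 30 min, 37C compound treatment alongside […] (added as 300 uM solution) in G418-selected cells seeded at 2000/well and grown 16–24 h.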
Six1-Eya2 inh: Six1/Eya2 interaction inhibition; activity change, % (no concentration beside the values); 360,000 compounds, 0.56% hits; AID 651725; Q15475+O00167; AlphaScreen GST-Six1/His-Eya2 binding, biochemical; stronger effect = lower value; control for the full effect not named in the record; in the data active = activity change below about -65%; inconclusive = about -30% to -65%; inactive = above about -30%; further: on the % scale 0 is the no-effect control and ±100 the full control effect
Target sequence (O00167 whole entry, looked up): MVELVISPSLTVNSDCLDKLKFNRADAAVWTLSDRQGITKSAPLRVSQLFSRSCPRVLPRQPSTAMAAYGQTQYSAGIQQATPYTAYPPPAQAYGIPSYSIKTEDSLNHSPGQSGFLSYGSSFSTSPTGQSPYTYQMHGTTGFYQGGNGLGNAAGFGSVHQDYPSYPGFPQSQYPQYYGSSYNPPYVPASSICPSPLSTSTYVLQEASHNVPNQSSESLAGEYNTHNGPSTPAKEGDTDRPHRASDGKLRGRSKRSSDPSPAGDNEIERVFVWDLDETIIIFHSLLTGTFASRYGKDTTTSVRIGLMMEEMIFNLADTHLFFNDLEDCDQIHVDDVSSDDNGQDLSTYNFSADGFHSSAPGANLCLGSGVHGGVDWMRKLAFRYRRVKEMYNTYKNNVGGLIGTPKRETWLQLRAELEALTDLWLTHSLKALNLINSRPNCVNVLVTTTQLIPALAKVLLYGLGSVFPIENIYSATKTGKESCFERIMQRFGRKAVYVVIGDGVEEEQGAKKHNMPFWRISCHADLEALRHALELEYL
Target sequence (Q15475 whole entry, looked up): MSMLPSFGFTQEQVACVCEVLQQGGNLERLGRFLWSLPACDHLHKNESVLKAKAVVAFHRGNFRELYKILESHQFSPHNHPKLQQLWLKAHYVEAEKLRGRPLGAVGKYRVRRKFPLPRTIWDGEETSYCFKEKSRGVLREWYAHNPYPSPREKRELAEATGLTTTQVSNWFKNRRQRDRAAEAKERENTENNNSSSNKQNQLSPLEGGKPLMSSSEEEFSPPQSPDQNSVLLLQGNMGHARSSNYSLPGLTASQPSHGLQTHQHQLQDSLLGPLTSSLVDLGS
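Homogeneous AlphaScreen proximity assay pairing GST-Six1 with His-tagged Eya2 (added as 5X mix: 250 nM and 500 nM) in 50 mM Tris pH 8.0, 300 mM NaCl, 1 mM TCEP. Glutathione donor and nickel acceptor beads; 1 h, 37 °C, dark.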
CtBP-E1A inh: CtBP/E1A binding inhibition; activity change, % (concentration not given with the values); 340,000 compounds, 0.49% hits; AID 651724; AlphaScreen GST-E1A/His-CtBP binding, 1536-well; stronger effect = lower value; control for the full effect not named in the record; in the data active means activity change below about -65%; inconclusive means about -30% to -65%; inactive means above about -30%; further: on the % scale 0 is the no-effect control and ±100 the full control effect
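Steps: dispense buffer (Tris pH 8.0, NaCl 300 mM, TCEP 1 mM, BSA, Tween 20); add 5X protein mix (GST-E1A, His-CtBP, 125 nM each); pin 23 nL compound; 2 h at 37 °C, dark; add 5X beads (50 ug/mL); 1 h; read.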
gsp ag: activates gsp, the McCune-Albright syndrome mutation; gsp mutant cells, cAMP HTRF, 30 min; control for the full effect not named in the record; Potency, µM (doses to about 76.9 µM), for the others: top-dose activation (cAMP increase), usual class: activators; 340,000 compounds, 0.13% hits; AID 624287; active = well fitted activation curve with a large enough effect; inconclusive = small, poorly fitted or top-dose-only effect, or another doubt; inactive = no such curve, though single readings can be large or run the other way; cell line not stated here;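 further: phosphodiesterase inhibitor Ro 20-1724 added with compounds to block cAMP breakdown; potency means the concentration at half of the fitted maximal effect; nearly all actives have a fitted effect of over 60% in size; about a fifth of the inactives were tested at one dose only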
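Cells stably selected in G418 were plated at 2000/well, grown 16-24 hr, then given compounds in DMSO with the PDE inhibitor […] (300 uM solution added) for 30 min at 37C; cAMP was read by HTRF.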
D2 ag: agonists of human D2 dopamine receptor (beta-arrestin) | DiscoveRx PathHunter D2 beta-arrestin, luminescence, 90 min; 100% = 57 uM dopamine signal | activation, % (test concentration not listed) | 360,000 compounds, 0.084% hits; in the data active = activation above about 40%; inconclusive = about 15% to 40%; inactive = below about 15%; further: compound concentration not given in the record; the text of the record calls up to 30% inactive
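DiscoveRx PathHunter D2 beta-arrestin cells (2,100/well) attached overnight, then compound-stimulated 90 min at 37 C in HBSS/10 mM HEPES/0.1% Tween-20 buffer; beta-galactosidase complementation read by luminescence after 1 h at ambient temperature. Dopamine 57 uM final (EC100) as control.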
D2 PAM: potentiates the human D2 dopamine receptor allosterically | AID 624464 | potentiation, % (concentration not given with the values) | 360,000 compounds, 0.23% hits | DiscoveRx D2 beta-arrestin cells, luminescence, 90 min; 100% = 57 uM dopamine signal; active = potentiation of 50% or more; inconclusive = 30% to 50%; inactive = 30% or less;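 further: tested on top of an EC20 dose of dopamine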
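D2 cells co-treated with compound plus 50 nM dopamine (EC20) for 90 min at 37 deg C to detect potentiation. Beta-arrestin recruitment was read as enzyme-fragment luminescence after 1 h at ambient temperature. Full response was set by 57 uM dopamine.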
* marks the source's active call; other numbers are inactive results; ? = inconclusive; . = not tested or not shown; [ ] = dose if it differs, or a comment. Rows are unselected. About 1.4% of those tested had a hit in this group.

SMILES	gsp antagonist	Six1-Eya2 inh	CtBP-E1A inh	gsp ag	D2 ag	D2 PAM
COc1ccc(Cc2nnc(NC(=O)c3ccc(Cl)c([N+](=O)[O-])c3)s2)cc1	-12%	-2	14	0%	0.5	-18
O=C(NCC1CCCO1)c1cccc(F)c1 (centres undefined)	2%	6	2	22%	1.1	8
CCCCN1C(Nc2ccccc2)=NC[C@@H]1Cc1ccccc1	4%	8	6	.	-0.3	-22
O=C(Cc1ccccc1F)Nc1ccc(S(=O)(=O)Nc2ncccn2)cc1	0%	8	7	-1%	0.1	-5
CCCCCOc1ccc(Br)cc1/C(C)=N/NC1=NCCN1	23%	-11	-15	17%	-4.7	-16
C=CCc1cc(Cl)ccc1OCCOCCNCCOC	8%	-1	6	24%[15.4 µM]	-3.4	-16
Cc1ccc(CN(C(=O)Cn2nnc3ccccc32)C(C(=O)NCc2ccco2)c2ccc(C)o2)cc1 (centres undefined)	?	-11	-2	0%	1.2	13
COc1cccc(N(CC(=O)NCCSc2ccc(Cl)cc2)S(C)(=O)=O)c1	?	5	-8	10%	0.5	1
Cc1ccc(S(=O)(=O)NC(=O)Nc2c(C)cccc2C)cc1	13%	7	0	-8%[15.4 µM]	0.1	-4
CC(=O)C1=C(C)Nc2ncnn2C1c1cccc(Br)c1 (centres undefined)	2%	-15	-13	-2%[15.4 µM]	0.1	-14
Cc1ccc2cn[nH]c2c1NC(N)=S	13%	9	17	-10%[15.4 µM]	-2.1	-8
O=C1CCN(Cc2ccccc2)CCN1CCOc1ccccc1	6%	-2	3	.	1.6	-5
Nn1c(SCC(=O)N2CCCc3ccccc32)nnc1-c1ccccc1	0%	4	9	-7%	-0.8	-21
O=C(N/C(=C\c1cccs1)C(=O)N1CCOCC1)c1cccs1	-2%	10	0	29%	0.1	-4
CC(=O)C1=C(C)NC(SCc2ccc(C#N)cc2)=C(C#N)C1c1ccco1 (centres undefined)	6%	-5	-6	-2%	-1.5	-1
Cc1noc(C)c1C(=O)N1CCCC(N2CCN(c3cccc(C(F)(F)F)c3)CC2)C1 (centres undefined)	-12%	2	1	-22%	-1.3	-13
Cc1ccc(/C=C2\Oc3c(ccc(O)c3CN3CCN(CCO)CC3)C2=O)cc1	-17%	1	-9	-3%[15.4 µM]	-0.6	-6
N#Cc1cccc(NC(=O)COC(=O)CCc2nc3ccccc3c(=O)[nH]2)c1	1%	2	1	11%[15.4 µM]	1.6	6
O=C1c2ccc(Oc3ccc4c(c3)C(=O)N(CCCCO)C4=O)cc2C(=O)N1CCCCO	2%	7	6	-47%[inhibitor]	2.0	5
Cc1cc(C)n2[nH]c(=O)c(N=Nc3cccc(Cl)c3)c2n1	-19%	-1	5	-2%	-0.1	-2
COCCN(C(=O)CSc1ncn[nH]1)c1c(N)n(Cc2ccccc2)c(=O)[nH]c1=O	10%	7	10	2%	-1.6	-19
COc1ccc(C(=O)Nc2ccccc2C(=O)N2CCN(c3ccccc3)CC2)cc1	-11%	-6	-2	?	-3.2	3
COc1ccc(-c2cc(C(=O)N3CCOCC3)c3cc(C)ccc3n2)cc1	-7%	-3	-1	13%	-2.5	14
CN(C)c1ccc(/C=N\NC(=S)SCN2C(=O)C3CCC(C)(C2=O)C3(C)C)cc1 (centres undefined)	-20%	?	-19	21%	-0.8	24
CNC(=O)/C(C#N)=C1\SC(Cc2ccc(F)cc2)C(=O)N1c1ccccc1C (centres undefined)	0%	3	4	-9%	0.2	-6
The list goes on:
SMILES	gsp antagonist	Six1-Eya2 inh	CtBP-E1A inh	gsp ag	D2 ag	D2 PAM
O=C(CSc1ccccn1)Nc1ccc2c(c1)CCC2	-6%	-1	10	13%[15.4 µM]	-2.7	-21
CNc1cc(F)nc(F)n1	4%	-6	.	6%	-4.7	-3
Cc1c(Cl)cccc1Nc1n[nH]c(=S)s1	-6%	-16	5	-8%	-2.1	-32
CC(N=C1NS(=O)(=O)c2ccccc21)C(=O)NCc1ccc(F)cc1 (centres undefined)	6%	4	7	8%[15.4 µM]	-2.8	-31
O=C(NC(CC(=O)N1CCN(c2ccccc2O)CC1)c1ccccc1)c1ccccc1Cl (centres undefined)	-9%	6	0	-1%	3.0	3
CC(C)C[C@H]1CN([C@@H](Cc2ccccc2)CN2CCC[C@@H]2CN2C(=O)C(=O)NC[C@@H]2Cc2ccc(O)cc2)C(=O)C(=O)N1CC1CCCCCC1	.	-8	-4	.	-3.6	-2
O=C(COc1ccc([N+](=O)[O-])cc1)NNC(=O)c1cccnc1	-1%	3	-8	-12%	0.5	-4
Cc1cccc(C)c1NC(=O)CN(C)C(=O)Cc1cccc(C(F)(F)F)c1	-9%	20	0	-1%[15.4 µM]	-1.9	-4
COc1ccc(C2N(S(=O)(=O)c3ccc(C)cc3)CCN2S(=O)(=O)c2ccc(C)cc2)cc1	-4%	-3	-9	-1%	0.3	-13
Cc1cc(=O)n2c(C)n[nH]c2n1	13%	11	12	-13%	-2.3	-3
CCc1nnc(NC(=O)c2n[nH]c(=O)c3ccccc23)s1	6%	4	.	-20%	-3.9	-8
O=C(CCc1c[nH]c2ccccc12)N/N=C/c1ccc2c(c1)OCO2	-14%	-22	-17	-6%[15.4 µM]	-1.7	-3
Cc1ccc(NC(=S)Nc2cc(C(=O)O)ccc2N2CC3CC(C2)c2cccc(=O)n2C3)cc1C (centres undefined)	12%	-5	0	23%	-7.2	-1
C=CCN(C(=O)c1csnn1)C(C(=O)NCc1ccc(F)cc1)c1cccs1 (centres undefined)	4%	2	-1	5%[15.4 µM]	0.1	1
CN1C(=O)c2ccccc2N(C)C1c1ccc2c(c1)OCO2 (centres undefined)	-5%	6	12	?	-1.1	-1
CC(=O)NS(=O)(=O)c1ccc(N/C(N)=N/c2nc(C)cc(C)n2)cc1	9%	0	.	-26%	-4.3	-24
Cc1c(C(=O)NCCN(C)C)n(C)c(=O)c2ccccc12	.	2	5	.	-4.6	-4
CCCCNC(=O)C1CCN(c2nc(C)cc(C)n2)CC1	6%	2	.	-1%	-3.1	-6
O=C(NC1CCCCC1)N(Cc1cc2cc3c(cc2[nH]c1=O)OCCO3)C1CCCCC1	-1%	0	-2	16%	-0.2	-5
Cc1ccc(S(=O)(=O)N(C)c2ccc(OCC(=O)OCc3nnc(-c4ccccc4)o3)cc2)cc1	-9%	35	.	-10%	-1.6	-2
CCOc1ccccc1CNC(=O)C1CCCN(c2ncnc3c2nc2n3CCCCC2)C1 (centres undefined)	-2%	-1	-1	-1%	-0.1	-7
O=C(/C=C/c1cccs1)NCc1cccnc1	1%	12	-5	-1%[15.4 µM]	2.1	-7
CC1=C(C(=O)OC(C)(C)C)C(c2ccc3ccccc3c2)NC(=O)N1C (centres undefined)	-4%	-5	-3	1%	-1.1	-1
COc1ccc(C(=O)Nc2c(N)nc(SCC(=O)Nc3ccc(NC(C)=O)cc3)[nH]c2=O)cc1	7%	-7	-6	0%[15.4 µM]	-3.8	-10
CCc1nc2nc(C)c(NS(=O)(=O)c3ccc4c(c3)CCCC4)c(=O)n2[nH]1	7%	6	5	-3%	1.6	-2

Quoted at random: 4 entries already listed
SMILES	gsp antagonist	Six1-Eya2 inh	CtBP-E1A inh	gsp ag	D2 ag	D2 PAM
O=C(NC(CC(=O)N1CCN(c2ccccc2O)CC1)c1ccccc1)c1ccccc1Cl (centres undefined)	-9%	6	0	-1%	3.0	3
CCc1nnc(NC(=O)c2n[nH]c(=O)c3ccccc23)s1	6%	4	.	-20%	-3.9	-8
O=C(/C=C/c1cccs1)NCc1cccnc1	1%	12	-5	-1%[15.4 µM]	2.1	-7
CC(C)C[C@H]1CN([C@@H](Cc2ccccc2)CN2CCC[C@@H]2CN2C(=O)C(=O)NC[C@@H]2Cc2ccc(O)cc2)C(=O)C(=O)N1CC1CCCCCC1	.	-8	-4	.	-3.6	-2

(list continues)
SMILES	gsp antagonist	Six1-Eya2 inh	CtBP-E1A inh	gsp ag	D2 ag	D2 PAM
COc1ccc(CCn2nc(C)c([N+](=O)[O-])c2C)cc1	1%	3	8	49%	1.7	-6
COc1cc(C(=O)NCC(=O)N/N=C/c2cccc(OC(=O)c3ccco3)c2)cc(OC)c1OC	-11%	-10	.	17%	-0.1	-8
CCOCCCNC(=O)C(NC(=O)c1ccccc1O)c1ccc(Cl)cc1 (centres undefined)	?	8	12	-8%[15.4 µM]	-1.9	-4
N#Cc1c(-c2ccccc2)nc2n(c1=O)CCS2	12%	2	6	?	-2.4	-12
CCOCCCNC(=S)NCCNc1nc2ccc(C)cc2cc1C#N	-26%	-7	-7	-5%[15.4 µM]	1.5	-4
COc1ccc(S(=O)(=O)NCC2CCC(C(=O)NCc3cccnc3)CC2)cc1 (centres undefined)	12%	1	3	-5%[15.4 µM]	-3.4	1
CN(C)c1ccc(/C(=N\O)c2ccccc2)cc1	-6%	-18	-19	7%	-1.6	3
CCOC(=O)c1ccc(NC(=S)NC2CC(C)(C)NC(C)(C)C2)cc1	21%	-2	-1	-30%	0.4	-11
CCN1CCN(Cc2ccccc2NC(=O)Nc2ccc(C)cc2)CC1	10%	0	6	-24%	-3.1	-9
O=C(CCCCCn1c(=S)[nH]c2ccc(N3CCOCC3)cc2c1=O)NCc1ccc2c(c1)OCO2	-10%	0	4	13%[15.4 µM]	1.8	0
Cc1ccc(C(=O)NC(=S)NNC(=O)c2ccccc2[N+](=O)[O-])cc1	5%	-7	-19	-6%	-4.3	-14
COc1ccc(NC(=S)N(CCCN2CCCC2)Cc2cccn2Cc2ccc(Cl)cc2)cc1Cl	-6%	?	.	-17%	-2.7	-26
O=C1CCC(C(=O)Nc2ccccc2)N1 (centres undefined)	13%	-1	-2	6%	-2.1	0
Cc1ccc(C)c(N2C(=O)CC(Cc3ccc(Br)cc3)C2=O)c1 (centres undefined)	-18%	-13	-3	-7%[15.4 µM]	0.2	-6
CC(Sc1ccc(Cl)cc1)C(=O)NNC(=O)c1ccncc1 (centres undefined)	7%	-1	11	-20%	-3.9	-5
COC(=O)C1CCN(C(=O)COC(=O)CCc2nc3ccccc3c(=O)[nH]2)CC1	3%	8	0	16%	-2.6	-5
N#C/C(=N\Nc1ccccc1F)c1nc(-c2ccccc2)cs1	5%	6	.	0%	-2.7	-9
N#CCC(=O)Nc1sc2c(c1C(N)=O)CCCC2	-4%	-5	-6	-18%	-3.1	-5
CNC(=O)CC(=O)Nc1ccccc1C(=O)O	5%	4	-1	11%	-0.7	-1
N#CC(C(=O)Nc1ccc(Cl)cc1)=C1Nc2ccccc2N1	2%	-1	2	9%	4.8	18
CC(C)(C)C1CCC(C(=O)Nc2ccccc2N2CCOCC2)CC1 (centres undefined)	-6%	3	11	0%	1.2	5
COCCn1nnnc1C(c1ccccc1)N1CCN(c2ccccc2)CC1 (centres undefined)	-10%	-1	1	17%	-3.9	-9
CCOC(=O)C1(CCOC)CCN(C(=O)c2ccccc2-c2cccc(C)c2)CC1	1%	4	4	-35%[inhibitor]	-4.6	-3
O=C(c1csc2c1CCCC2)N1CCCCC1	-16%	0	0	15%	-1.6	17
